Beta apoptosis: blocks beta cell apoptosis | AID 435005 | protection from apoptosis, % (test concentration not listed) | 300,000 tested, 0.8% active | INS-1E cytokine-induced death, ATP luminescence, 48 h; percent of positive-control rescue, neutral wells zero;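 active = all replicates at 75% or more, or half of them and the mean; inconclusive = half reach 75% but not the mean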;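 note: 0% = cytokine-treated negative control wells and 100% = positive control rescue; higher means more ATP so stronger rescue from cytokine killing; wells of about 40 µL received 100 nL stock; the first replicate is given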
Bfl-1 A1 inh: inhibitors of the anti-apoptotic protein A1, read as caspase activation | 330,000 tested, 0.066% active | caspase activation, % (no concentration beside the values) | AID 2462 | MEF A1-2A-BIM cells, Caspase-Glo 3/7 luminescence, 3 h; percent of clofoctol response, vehicle zero;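 active = over half of replicate activation scores above 10%, or exactly half above 10 with the replicate mean above 10; inconclusive = replicate mean below 10 yet half the replicates above 10; inactive = over half of replicates below 10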;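 note: wells of about 30 µL received 50 nL stock; many hits fall short of the cut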
RanGTP-Imp inh: inhibitors of RanGTP-importin-beta interaction, primary screen, biochemical, FRET, CFP-Ran, YFP-importin-beta, homogeneous. cell-free CFP-Ran/YFP-importin-beta FRET ratio. inhibition, % (concentration not given with the values). 300,000 tested, 1.1% active;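 active = most replicates above 15%; inconclusive = exactly half above 15%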;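 note: 0% = DMSO wells and 100% = Ran loaded with GDP instead of GTP; wells of about 40 µL received 100 nL stock; the first replicate is given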
LANA-H2A inh: blocks KSHV LANA binding to histone H2A/H2B | Q9QR71 | cell-free LANA-H2A/H2B peptide, fluorescence polarization | inhibition, % (no concentration beside the values) | 320,000 tested, 0.6% active | AID 2629; in the data active = inhibition mostly above about 10%, no sharp cut-off; inactive = mostly below about 6.7%;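 note: stock transfer was 7.5 nL into about 10 µL; 0% = median of vehicle wells and 100% = median of positive control wells; one replicate is shown; the record names a cut of 25% in any replicate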
T cruzi repl: T. cruzi replication inhibition. T. cruzi beta-gal in NIH3T3, luminescence, 90 h. inhibition, % (no concentration beside the values). 300,000 tested, 1.4% active;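 active = mean inhibition across valid replicates above about 55%, limit read from the data; inconclusive = mean below that limit but half or more replicates reach it; inactive = mean below it, under half of replicates reach it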;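 note: signal also drops with host cell toxicity which is not excluded here; 0% = plate median of DMSO wells and 100% = zero luminescence signal; higher percent means less beta-gal luminescence so fewer parasites; stock transfer was 50 nL into about 50 µL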
Calb FLC: affects C. albicans growth with fluconazole | growth inhibition, % (concentration not given with the values) | 300,000 tested, 0.57% active | C. albicans CaCi-2 (fluconazole-resistant clinical isolate) + fluconazole, Alamar Blue growth, 48 h;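 active = most replicates above 75%; inconclusive = exactly half above 75%; inactive = most below 75%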;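 note: all wells also contain fluconazole at 8 µg/ml as a sub-toxic cotreatment; 0% = median of DMSO wells and 100% = median of geldanamycin control wells; wells of about 8 µL received 7.5 nL stock; the first replicate is given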
Vif TR-FRET: HIV-1 Vif–A3G interaction blockers – biochemical, TR-FRET, GST-Vif 1-94, biotin-A3G peptide, dose response retest, primary screen (AID 1117319) | TR-FRET GST-Vif / biotin-A3G peptide binding; higher % means a stronger effect; test concentration not given here; strong numbers were not always called active | inhibition, %, or IC50 in µM where a hit was titrated | 260,000 tested, 0.57% active;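 active = above the screen mean plus three standard deviations and confirmed in dose response; inconclusive = results disagree or hit not tested in dose response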;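 note: Vif residues 1-94 fused to GST binding biotinylated APOBEC3G peptide 110-148; 0% = full assay without inhibitor and 100% = GST in place of GST-Vif; retest series ran down from 100 µM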
MLL AF4-AF9 inh: blocks AF4 peptide binding to human AF9; P42568; AlphaScreen, biotin-AF4 peptide binding to FLAG-AF9; inhibition, % at 10 µM; 350,000 tested, 0.47% active; AID 651704;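 active = every replicate reaching a set inhibition limit, whatever the replicate mean, cut at about 25% in these data; inconclusive = mean inhibition reaches that limit but some replicates miss it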;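 note: 0% = plate neutral control median and 100% = total signal loss; the record names both 10 and 1 µM as test concentration; the first replicate is given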
Target sequence (P42568 whole entry, looked up): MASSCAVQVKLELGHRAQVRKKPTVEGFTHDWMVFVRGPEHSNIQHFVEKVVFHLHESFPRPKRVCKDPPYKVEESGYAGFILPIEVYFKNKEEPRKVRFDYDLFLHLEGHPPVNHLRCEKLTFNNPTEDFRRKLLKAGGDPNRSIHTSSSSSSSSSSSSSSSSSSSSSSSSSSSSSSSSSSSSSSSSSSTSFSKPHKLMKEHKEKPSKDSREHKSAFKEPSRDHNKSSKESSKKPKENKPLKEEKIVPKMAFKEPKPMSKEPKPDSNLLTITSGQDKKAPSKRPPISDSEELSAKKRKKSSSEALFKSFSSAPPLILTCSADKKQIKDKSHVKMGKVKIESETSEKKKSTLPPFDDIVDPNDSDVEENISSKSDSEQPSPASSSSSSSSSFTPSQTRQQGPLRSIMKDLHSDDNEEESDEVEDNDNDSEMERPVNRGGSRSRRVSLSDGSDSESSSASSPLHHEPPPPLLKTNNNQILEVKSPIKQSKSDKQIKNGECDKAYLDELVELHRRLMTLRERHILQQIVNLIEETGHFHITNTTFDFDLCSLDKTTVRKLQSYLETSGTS
Numbers without * were called inactive; ? = inconclusive; · = not tested or not shown.

SMILES | Beta apoptosis | Bfl-1 A1 inh | RanGTP-Imp inh | LANA-H2A inh | T cruzi repl | Calb FLC | Vif TR-FRET | MLL AF4-AF9 inh
Cc1cc(C(=O)N2CCN(c3ccccn3)CC2)c(C)o1 | -2.0 | -0.4 | 2.4 | 5.6 | -8.5 | 27.6 | 16.0% | 0.0
CS(=O)(=O)N1CCN(c2nc3ccc(Cl)cc3s2)CC1 | -4.0 | 0.1 | ? | 5.7 | -7.3 | -1.4 | -4.3% | ·
Nc1c(C(=O)c2cccs2)sc2nsc(SCCN3CCCCC3)c12 | -7.7 | 0.9 | -88.6 | 1.9 | 43.2 | -28.5 | -12.8% | ·
CCOC(=O)C1C2C=CC3(CN(c4ccccc4CC)C(=O)C13)O2 (stereo not given) | -0.7 | -0.1 | -2.8 | 0.3 | 8.4 | 2.2 | -9.5% | ·
CCOC(=O)CSC1=Nc2ccccc2C2=NC(CC(=O)NCc3ccc4c(c3)OCO4)C(=O)N12 (stereo not given) | -1.0 | -1.0 | · | -2.8 | · | · | 7.0% | ·
Fc1ccc(-n2nnc(-c3ncc[nH]3)n2)cc1 | 0.1 | -6.5 | -0.5 | -3.5 | -10.3 | 11.6 | · | ·
Cc1ccc2nsnc2c1S(=O)(=O)N1CCN(C)CC1 | · | -0.3 | 3.9 | -3.3 | -4.9 | -3.6 | · | -2.8
Cc1cccc2nc(CSc3nc4ccc([N+](=O)[O-])cc4[nH]3)c(Br)n12 | 5.0 | -1.3 | -1.1 | 0.7 | -19.4 | 0.5 | -1.8% | ·
NC(=O)c1cnn(-c2cccc(Cl)c2)c1N | 0.6 | -0.4 | -2.8 | -2.7 | 2.9 | 2.6 | 7.2% | 3.0
O=Cc1ccc(-c2cccc(C(=O)O)c2)o1 | 0.4 | -1.7 | ? | -3.9 | -4.0 | -5.7 | 6.2% | -3.9
Cc1ccc(C(=O)CCC(=O)OCC(=O)NNC(=O)c2ccc([N+](=O)[O-])cc2)cc1 | -2.8 | 0.3 | · | 12.0 | · | · | 7.3% | -0.1
O=C(CN(Cc1ccc(F)cc1)C(=O)CCC(=O)Nc1nccs1)NCc1ccc(F)cc1 | -12.0 | 0.3 | 2.8 | 6.2 | 11.3 | -3.6 | · | 1.0
CN(Cc1ccccc1)c1nc2c(c(=O)[nH]c(=O)n2C)n1CCSc1nc2ccccc2[nH]1 | 0.0 | -0.4 | 5.5 | -1.3 | 19.5 | -1.1 | -2.7% | ·
COc1ccc(N2CCN(C(=O)C3Cc4ccccc4CN3C(=O)c3ccco3)CC2)cc1 (stereo not given) | -3.4 | 0.3 | · | 0.4 | · | · | 13.8% | 3.7
CCN(C(=O)COc1cccc(-n2cnnn2)c1)C1CCS(=O)(=O)C1 (stereo not given) | 0.4 | -2.4 | · | 3.1 | · | · | -3.3% | -0.1
Cc1c(C(=O)NCc2c(F)cc(F)cc2F)oc2ccc(S(=O)(=O)N3CCOCC3)cc12 | 2.0 | 0.5 | 5.4 | -3.4 | -1.9 | 4.5 | 4.2% | -0.1
Cc1c(NC(=O)C2(c3ccc(Cl)cc3)CCCC2)c(=O)n(-c2ccccc2)n1C | 1.7 | -0.4 | 8.5 | 9.9 | 6.7 | 4.7 | 13.8% | ·
N#Cc1nc(COc2cccc(Cl)c2)oc1N1CCCC1 | -7.4 | 0.4 | -2.2 | 4.4 | 12.0 | -0.1 | 12.8% | ?
O=C(N/N=C/c1ccc2c(c1)OCCO2)c1ccncc1 | 2.5 | ? | 0.8 | 2.6 | 1.9 | -6.1 | 9.7% | -2.5
O=C(CC(Cc1ccccc1)C(=O)O)Nc1ccc(F)cc1 (stereo not given) | · | -0.1 | -4.2 | -2.0 | -11.3 | 3.2 | ? | -5.0
COc1cccc(CNC(=O)Cn2c(=O)oc3ccccc32)c1OC | -5.9 | -1.1 | 5.2 | 0.0 | 3.5 | -6.7 | 85.7µM* | -0.4
CSc1nc2ccccc2cc1/C=C(\C#N)c1cccc(C)c1 | 8.9 | -0.8 | 4.9 | 0.7 | 2.8 | -1.9 | -2.9% | ·
CCOC(=O)[C@H]1[C@H]2COc3ccc(Br)cc3[C@@H]2N2C(=O)CN(Cc3ccc(Cl)cc3)C(=O)[C@@]12C | -3.5 | -1.5 | · | 0.5 | · | · | · | 2.2
CCOC(=O)C1=C(N)N2C(=O)CSC2=C(C(=O)OC)C1 | -3.5 | 0.9 | -4.1 | -8.1 | -16.1 | · | 1.9% | ·
O=C(NNc1cccc(Cl)n1)C1CC1 | -6.1 | 0.0 | -2.6 | -2.4 | -16.8 | 15.7 | 3.7% | -3.1
Cc1ccc(S(=O)(=O)CCC(=O)NCCN2C(=O)S/C(=C/c3ccc(F)cc3)C2=O)cc1 | -2.0 | -0.2 | -1.2 | -6.9 | -7.7 | 0.6 | -5.8% | 7.5
Cc1ncc(CN2CCN(CCc3ccccc3)C(CCO)C2)s1 (stereo not given) | -2.9 | 1.5 | -6.6 | 2.3 | 16.9 | -35.0 | · | 0.3
Cc1cc(NC(=O)c2ccccc2F)n(C(C)(C)C)n1 | -2.8 | 0.7 | -2.8 | -2.7 | -16.5 | -29.2 | -0.9% | 1.4
Cc1cccc(S(=O)(=O)c2c(N)n(/N=C/c3ccco3)c3nc4ccccc4nc23)c1 | 4.6 | -0.3 | 2.6 | -1.1 | 56.6* | 22.1 | >55.3µM* | ·
O=C1CCCN1CCC12CC3CC(CC(C3)C1)C2 | -3.5 | 0.6 | 0.3 | 2.4 | 9.4 | -4.0 | -3.4% | -3.5
CCOC(=O)c1cc2sc(C)cc2n1CC(=O)NCc1ccc(F)cc1 | 11.0 | 0.6 | ? | -2.0 | 19.1 | 33.7 | 2.1% | -15.7
CC(=O)c1ccc(NC(=O)CCNC(=O)c2ccc(Cl)cc2)cc1 | 3.1 | 1.0 | -2.0 | -0.8 | -15.8 | 5.3 | -4.9% | -1.2
O=C(COC(=O)/C=C/c1cccc(F)c1)Nc1cccc(S(=O)(=O)NC2=NCCCCC2)c1 | -3.7 | -0.3 | · | -2.4 | · | · | · | -0.4
CC1CCCC(C)N1C(=O)COC(=O)c1c[nH]c2ccccc12 (stereo not given) | -1.5 | 0.5 | · | -1.3 | · | · | · | 0.1
COc1cccc(C(=O)C2CCCN(Cc3cccc(OCCO)c3)C2)c1 (stereo not given) | -4.0 | -0.8 | -1.5 | -1.5 | 17.9 | -4.7 | · | 3.3
CC(=O)N1CCc2cc(Br)cc(S(=O)(=O)NCCCN3CCC(C)CC3)c21 | 2.1 | 0.8 | · | 9.1 | · | · | 4.2% | ·
CCCCNC(=O)c1oc2ccc(S(=O)(=O)N3CCCC3)cc2c1C | 2.4 | -0.4 | 1.9 | -3.7 | 9.8 | 0.5 | ? | 0.9
CCCC(=O)Nc1c2c(nn1-c1ccc(OC)cc1)CS(=O)(=O)C2 | 0.6 | -0.3 | -3.9 | 5.0 | -12.0 | -1.9 | 0.2% | ·
CC(=O)Nc1ccc(Sc2ccccc2C(=O)O)cc1 | 0.1 | -1.0 | 0.2 | 6.2 | -12.0 | -3.9 | · | -2.1
O=C1C(Cl)=C(NCCN2CCOCC2)C(=O)c2ccccc21 | 7.5 | -0.4 | -0.5 | 1.9 | -11.7 | -3.0 | · | 2.8
CS(=O)(=O)N1N=C(c2ccco2)CC1c1ccc(Br)cc1 (stereo not given) | 0.7 | 0.1 | -0.4 | -1.4 | -7.3 | -0.8 | · | -5.8
O=c1c2ccccc2nc(SCc2nc3ccccc3s2)n1CCCO | -5.0 | 0.2 | 4.7 | -0.7 | 0.4 | -0.6 | 3.7% | ·
O=S1(=O)Nc2c(ccc3cccnc23)-c2ccccc21 | 30.9 | -1.4 | 1.2 | -1.8 | 72.0* | 8.6 | >100µM* | ·
COCCN1CCn2c(nc3cc(Nc4nnc(C)c5ccccc45)ccc32)C1 | 0.5 | -0.6 | 1.4 | 0.1 | -8.2 | -2.6 | 27.5% | -0.1
Cn1cc(Br)c(-c2cccc(N3C(=O)CC(C)(C)CC3=O)c2)n1 | -5.3 | 0.9 | ? | 0.9 | -4.5 | 0.9 | · | 2.3
Cc1ccc(NC(=S)NC(=O)c2cncc(Br)c2)cc1Cl | 6.2 | -0.3 | 0.1 | 2.0 | -5.0 | -2.4 | · | -4.6
COc1ccc(-c2noc(CCc3ccccc3)n2)cc1 | -6.5 | -0.5 | -0.1 | -189.3 | 12.4 | -22.9 | 8.1% | -1.8
CN(C)CCNc1ncnc2oc(-c3ccccc3)c(-c3ccccc3)c12 | 5.4 | 0.5 | 0.5 | 3.8 | 45.2 | 8.5 | -1.1% | 16.1
C(=N\Nc1nc2ccccc2[nH]1)/c1cccs1 | 20.4 | -7.4 | -2.9 | -1.5 | -2.2 | -8.4 | 9.9% | ·
O=C(OCc1nc2ccsc2c(=O)[nH]1)c1ccccc1 | -0.4 | -0.6 | -4.0 | -4.4 | 3.5 | -1.0 | 7.5% | 1.2
O=C(O)c1ccc(NC(=S)N2CCCCC2)cc1 | 0.8 | ? | 6.1 | 4.5 | -0.6 | -4.7 | 0.4% | -1.4
c1ccc(CSc2ccc3nnc(-c4cccnc4)n3n2)cc1 | -3.1 | -0.1 | -3.4 | · | 4.2 | 1.1 | -5.7% | -49.1
S=C1NNC2(CC3CC2C2CCCC32)NN1 (stereo not given) | -0.7 | 0.6 | 0.7 | 3.3 | 14.2 | 29.8 | · | 6.1
CCOC(=O)C1CCCN(C/C=C/c2ccccc2[N+](=O)[O-])C1 (stereo not given) | -2.1 | 0.2 | 0.9 | 3.1 | 26.8 | -21.6 | 0.2% | 12.6
c1ccc(Nc2c3c(nc4ncnn24)CCC3)cc1 | -1.3 | -1.1 | 2.9 | 2.6 | -5.5 | 9.2 | 5.6% | ·
C[C@H](NC(=O)c1ccc(C(C)(C)C)cc1)C(=O)N1CCOCC1 | 2.5 | -0.9 | · | 2.6 | · | · | · | -1.4
O=C(Cc1nnc(NC(=O)c2ccccc2)s1)N/N=C\c1ccc(O)c(O)c1 | -2.8 | 0.1 | 2.0 | 2.4 | -12.7 | -9.5 | · | -7.1
COc1ccc(C=O)cc1OS(=O)(=O)c1ccc(NC(C)=O)cc1 | 3.6 | -0.4 | -3.6 | 0.4 | -9.4 | -11.5 | · | -3.9
N#CC(C#N)=C1C=C2C=C(N3CCOCC3)CCC2CC1 (stereo not given) | · | · | -1.6 | · | 19.4 | 18.6 | -7.0% | -0.6
O=C(CCNS(=O)(=O)c1cccc2nsnc12)NCCc1ccccc1 | 3.6 | 0.4 | -3.8 | 4.2 | -1.1 | -1.0 | -7.2% | ·
Other structures:
SMILES | Beta apoptosis | Bfl-1 A1 inh | RanGTP-Imp inh | LANA-H2A inh | T cruzi repl | Calb FLC | Vif TR-FRET | MLL AF4-AF9 inh
Cc1cc(C)cc(NC(=O)CCC(=O)Nc2nnc(C(C)C)s2)c1 | · | 0.8 | 4.0 | -2.3 | -15.6 | 7.1 | · | -0.5
O=C(CSC(=S)N1CCCC1)Nc1ccc(Br)cc1Cl | -2.8 | 0.6 | ? | -5.2 | 8.4 | -0.4 | 7.0% | -13.8
C=Cn1cc[n+](CC(=O)c2ccc(-c3ccccc3)cc2)c1 | 4.3 | 0.2 | 5.0 | -6.1 | 3.2 | 4.7 | -4.5% | -1.1
CC(SC1CCCC1)C(=O)NC(C)(C#N)C(C)C (stereo not given) | -23.7 | -0.1 | -0.1 | -2.8 | -20.9 | -16.2 | -2.8% | ·

Compound activity (PubChem)
